Screening data: PubChem BioAssay, Broad Institute
Vaccinia stage = blocks a specific stage of Vaccinia orthopoxvirus infection; Vaccinia-infected cells, mCherry/Venus stage reporter fluorescence; stronger effect = lower value; some inactives read as strong as hits; activity change (mCherry), % (test concentration not listed); 89,000 tested, 0.01% active;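 active = mCherry past -33% and 40 or more points under the early reporter, replicates agreeing; inconclusive = past -33% without that gap or agreement; tested in A549 cells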;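 also: scaled between vehicle wells and reference inhibitor wells; 23 nL library stock went into each well; one replicate is shown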
Vaccinia stage Venus = recorded beside Vaccinia stage, whose call it bears; activity change (Venus), %; measured here: Venus reporter, other viral stage;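 negative = less Venus signal; first of two replicates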
Numbers without * were called inactive; ? = inconclusive; nt = no result given. Some of the compounds tested, so the mix of outcomes need not match the whole.

structure	Vaccinia stage	Vaccinia stage Venus
COc1ccc(NC(=O)Nc2ccc3c(c2)C(=O)N([C@H](C)CO)C[C@H](C)[C@@H](CN(C)S(=O)(=O)c2cccs2)OCCCC[C@@H](C)O3)cc1	12	9
C[C@@H]1CN([C@@H](C)CO)S(=O)(=O)c2ccc(/C=C/c3ccccc3)cc2O[C@H]1CN(C)Cc1ccc(C(=O)O)cc1	?	nt
C[C@H](CO)N1C[C@H](C)[C@@H](CN(C)S(=O)(=O)c2cn(C)cn2)Oc2ccc(NC(=O)Nc3cccc4ccccc34)cc2C1=O	24	4
C[C@@H]1CCCCO[C@H](CN(C)Cc2ccccc2)[C@@H](C)CN([C@H](C)CO)C(=O)c2cc(NC(=O)Nc3cccc4ccccc34)ccc2O1	-20	-18
CO[C@H]1CN(C)C(=O)c2ccc(NC(=O)Cc3ccccc3)cc2OC[C@@H](C)N(C)C[C@@H]1C	17	12
C[C@@H]1CN([C@@H](C)CO)C(=O)c2cc(C3=CCCCC3)cnc2O[C@H]1CN(C)Cc1ccccc1	?	nt
C/C=C/c1ccc(C2[C@@H]3CN(C(=O)c4cnccn4)C[C@H]2N3)cc1 (stereo not given in full)	20	7
C/C=C/c1cnc2c(c1)C(=O)N([C@@H](C)CO)C[C@H](C)[C@H](CN(C)C(=O)Nc1ccccc1F)O2	-3	-8

Continued; it opens with the 2 that closed the last part.
structure	Vaccinia stage	Vaccinia stage Venus
C/C=C/c1ccc(C2[C@@H]3CN(C(=O)c4cnccn4)C[C@H]2N3)cc1 (stereo not given in full)	20	7
C/C=C/c1cnc2c(c1)C(=O)N([C@@H](C)CO)C[C@H](C)[C@H](CN(C)C(=O)Nc1ccccc1F)O2	-3	-8
O=C(Nc1ccccc1)N1CCCCN2[C@H](CO)[C@H](c3ccc(-c4ccccc4F)cc3)[C@@H]2C1	?	nt
COc1ccc2c3c(n(C)c2c1)[C@H](CO)N(Cc1ccccc1)CC31CCN(CC2CC2)CC1	?	nt
CN1C(=O)c2cc(NC(=O)c3ccc(Cl)cc3)ccc2OC[C@@H]2O[C@@H](CC(=O)NCc3cccc(F)c3)CC[C@@H]21	-28	-19
CCCC#Cc1ccc2c(c1)O[C@@H](CN(C)C(=O)C1CC1)[C@@H](C)CN([C@H](C)CO)S2(=O)=O	-18	-10
O=C(N[C@H]1CC[C@@H](CCNS(=O)(=O)c2ccccc2)O[C@H]1CO)c1cnccn1	12	3
Cc1ccc(-c2ccccc2[C@H]2[C@@H](C#N)N(C(=O)Cc3cccnc3)[C@H]2CO)cc1	?	nt
CCCNC(=O)NC[C@H]1[C@@H](c2ccc(C3=CCCC3)cc2)[C@H](CO)N1C(=O)CC	-3	5
CCS(=O)(=O)NCC[C@H]1CC[C@H](NC(=O)Nc2cc(Cl)cc(Cl)c2)[C@@H](CO)O1	-6	-1

Pulled one by one from the entries so far (4):
structure	Vaccinia stage	Vaccinia stage Venus
CCS(=O)(=O)NCC[C@H]1CC[C@H](NC(=O)Nc2cc(Cl)cc(Cl)c2)[C@@H](CO)O1	-6	-1
CCCNC(=O)NC[C@H]1[C@@H](c2ccc(C3=CCCC3)cc2)[C@H](CO)N1C(=O)CC	-3	5
CCCC#Cc1ccc2c(c1)O[C@@H](CN(C)C(=O)C1CC1)[C@@H](C)CN([C@H](C)CO)S2(=O)=O	-18	-10
CN1C(=O)c2cc(NC(=O)c3ccc(Cl)cc3)ccc2OC[C@@H]2O[C@@H](CC(=O)NCc3cccc(F)c3)CC[C@@H]21	-28	-19

Following part
structure	Vaccinia stage	Vaccinia stage Venus
COc1ccc(CN(C)C[C@@H]2Oc3ccc(NC(=O)Nc4ccc(OC)cc4)cc3C(=O)N([C@H](C)CO)C[C@@H]2C)cc1	-6	-5
N#C[C@@H]1[C@@H](c2ccc(C#Cc3cccc(F)c3)cc2)[C@@H](CO)N1C(=O)C1CCCC1	-15	-3
Cn1cnc(CCNC(=O)C[C@@H]2CC[C@H]3[C@@H](COC[C@@H](O)CN3C(=O)Nc3ccc(Cl)cc3)O2)c1	1	-1
CN(C)C(=O)[C@@H]1[C@@H](CO)[C@@H]2Cn3c(ccc(C4=CCCC4)c3=O)[C@H]1N2Cc1ccccn1	6	5
COc1ccc(NC(=O)Nc2ccc3c(c2)CC(=O)N([C@H](C)CO)C[C@H](C)[C@H](CN(C)Cc2ccc(C(=O)O)cc2)O3)cc1	10	2
CO[C@H]1CN(C)C(=O)c2ccc(NC(=O)C3CCC3)cc2OC[C@@H](C)NC[C@@H]1C	1	0
C[C@H](CO)N1C[C@H](C)[C@H](CN(C)Cc2ccc(C(=O)Nc3ccccc3N)cc2)OCCCC[C@H](C)Oc2ccc(NC(=O)C3CCCCC3)cc2C1=O	15	7
CCNC(=O)C[C@@H]1CC[C@@H]2[C@H](COc3ccc(NC(=O)Nc4cccc(C)c4)cc3C(=O)N2C)O1	13	7

(cont.)
structure	Vaccinia stage	Vaccinia stage Venus
COc1cccc(S(=O)(=O)Nc2ccc3c(c2)[C@@H]2C[C@@H](CC(=O)N4CCCCC4)O[C@@H](CO)[C@@H]2O3)c1	13	15
COc1ccc(NC(=O)Nc2ccc3c(c2)CC(=O)N([C@@H](C)CO)C[C@H](C)[C@H](CN(C)Cc2ccncc2)O3)cc1	12	16
O=C(C[C@@H]1CC[C@@H]2[C@H](COC[C@@H](O)CN2S(=O)(=O)c2ccccc2)O1)NCCN1CCCC1	23	17
C[C@H]1CN([C@@H](C)CO)C(=O)c2cccc(NS(=O)(=O)c3ccccc3)c2O[C@@H]1CN(C)C(=O)Nc1ccc2c(c1)OCO2	6	17
CCCC(=O)N1CC2(C1)CN(C(=O)Nc1cccc(F)c1)[C@H](CO)c1c2c2ccc(OC)cc2n1C	-4	-13
CCCNC(=O)C[C@H]1CC[C@@H]2[C@H](COc3ccc(NC(=O)Nc4cccc(C)c4)cc3C(=O)N2C)O1	6	11
C[C@H]1CN([C@@H](C)CO)C(=O)c2cccc(NC(=O)C3CCOCC3)c2O[C@@H]1CN(C)Cc1ccc2c(c1)OCO2	7	2
COc1cccc(NC(=O)Nc2ccc3c(c2)C(=O)N(C)C[C@@H](OC)[C@@H](C)CN(CC2CC2)[C@H](C)CO3)c1	-14	-14

Remaining list, next part
structure,Vaccinia stage,Vaccinia stage Venus
C[C@H](CO)N1C[C@H](C)[C@H](CN(C)C(=O)Nc2ccc3c(c2)OCO3)OCCCC[C@H](C)Oc2ccc(NS(=O)(=O)c3ccc(Cl)cc3)cc2C1=O,-15,-20
COc1ccc(CN(C)C[C@@H]2OCCCC[C@H](C)Oc3ccc(NS(=O)(=O)c4ccc(C)cc4)cc3C(=O)N([C@@H](C)CO)C[C@@H]2C)cc1,?,nt
Cc1ccc(S(=O)(=O)N(C)C[C@@H]2Oc3ncc(C#Cc4cccc(F)c4)cc3C(=O)N([C@H](C)CO)C[C@@H]2C)cc1,?,nt
C[C@H]1CN([C@@H](C)CO)C(=O)c2cc(-c3cncnc3)cnc2O[C@@H]1CN(C)C(=O)Cc1ccccn1,11,9
N#C[C@@H]1[C@@H](c2ccc(C#Cc3cccc(F)c3)cc2)[C@H](CO)N1C(=O)C1CCC1,-16,-4
CNC[C@@H]1Oc2ccc(NC(=O)Nc3ccccc3)cc2C(=O)N([C@@H](C)CO)C[C@H]1C,4,8
O=C(C[C@@H]1CC[C@H]2[C@@H](COC[C@@H](O)CN2C(=O)Nc2ccc3c(c2)OCO3)O1)N1CCN(c2ccccc2)CC1,8,11
Cc1ccc(S(=O)(=O)Nc2ccc3c(c2)CC(=O)N([C@H](C)CO)C[C@@H](C)[C@@H](CN(C)Cc2ccc(C(=O)Nc4ccccc4N)cc2)O3)cc1,-8,3
Cc1noc(C)c1NC(=O)Nc1cccc2c1O[C@H](CN(C)Cc1ccc(C(=O)O)cc1)[C@@H](C)CN([C@@H](C)CO)C2=O,-1,3
CCC(=O)N(C)C[C@H]1Oc2ncc(/C=C/c3ccccc3)cc2C(=O)N([C@@H](C)CO)C[C@@H]1C,7,1
C[C@@H]1CCCCO[C@H](CN(C)C(=O)CCC(F)(F)F)[C@H](C)CN([C@H](C)CO)C(=O)c2cc(NS(=O)(=O)c3ccc(Cl)cc3)ccc2O1,?,nt
C[C@@H]1CN([C@H](C)CO)S(=O)(=O)c2ccc(C#Cc3ccccn3)cc2O[C@@H]1CN(C)Cc1ccccc1,-9,3
Cc1ccc(S(=O)(=O)N(C)C[C@@H]2OCCCC[C@H](C)Oc3ccc(NC(=O)NC4CCCCC4)cc3C(=O)N([C@@H](C)CO)C[C@@H]2C)cc1,?,nt
C[C@@H]1CN([C@@H](C)CO)C(=O)c2cc(NS(=O)(=O)c3ccc(F)cc3)ccc2O[C@H]1CN(C)Cc1ccc(C(=O)O)cc1,20,15
CC(C)C#Cc1ccc([C@H]2[C@@H](CO)N3CCCCN(C(=O)c4ccc(F)cc4)C[C@H]23)cc1,?,nt
C[C@H](CO)N1C[C@H](C)[C@H](CN(C)S(=O)(=O)c2ccccc2)Oc2ccc(N(C)C)cc2C1=O,6,8
OC[C@@H]1[C@H](c2ccc(-c3cccc(F)c3)cc2)[C@H]2CN(Cc3cncnc3)CCCCN12,-21,-15
C[C@@H]1CN([C@H](C)CO)C(=O)Cc2cc(NC(=O)C3CCCCC3)ccc2O[C@@H]1CN(C)Cc1ccc(Oc2ccccc2)cc1,0,0
C/C=C/c1ccccc1[C@@H]1[C@H](C#N)N(C(=O)Cc2ccccn2)[C@H]1CO,4,-3
O=C(C[C@@H]1C=C[C@@H](NC(=O)Nc2ccccc2F)[C@@H](CO)O1)NCc1ccc(-c2ccccc2)cc1,-1,-3
COc1cccc(-c2ccc([C@@H]3[C@@H](CO)N4C(=O)CN(C(=O)NC(C)C)C[C@H]34)cc2)c1,13,-13
COc1ccccc1NC(=O)N1CC(=O)N2[C@H](CO)[C@H](c3ccc(C#Cc4ccc(F)cc4)cc3)[C@H]2C1,-35,-22
COCC(=O)N1[C@@H](CO)[C@@H](c2ccccc2)C12CN(C(=O)c1cccc(F)c1)C2,-10,-10
CS(=O)(=O)N1[C@@H](CO)[C@@H](c2ccccc2)C12CN(Cc1cc(F)ccc1F)C2,6,12
Cc1ccc(-c2cnc3c(c2)C(=O)N([C@@H](C)CO)C[C@H](C)[C@H](CN(C)CC2CCOCC2)O3)cc1,-6,-8

Following part.
structure,Vaccinia stage,Vaccinia stage Venus
CCC(=O)Nc1ccc2c(c1)OC[C@@H](C)N(C(=O)Cc1ccccn1)C[C@@H](C)[C@@H](OC)CN(C)C2=O,-2,3
CCN1[C@@H]2c3ccc(-c4ccccc4OC)c(=O)n3C[C@@H]2[C@@H](CO)[C@@H]1C(=O)NCCCN(C)C,9,0
C[C@@H]1CN([C@@H](C)CO)S(=O)(=O)c2ccc(-c3ccc(F)cc3)cc2O[C@H]1CN(C)CC1CC1,?,nt
COc1ccccc1NC(=O)N1CCCCN2[C@H](CO)[C@H](c3ccc(-c4cccc(C#N)c4)cc3)[C@@H]2C1,-29,-16
COc1ccc(S(=O)(=O)Nc2ccc3c(c2)C(=O)N([C@H](C)CO)C[C@@H](C)[C@@H](CN(C)C)OCCCC[C@@H](C)O3)cc1,11,11
CCC(=O)Nc1ccc2c(c1)C(=O)N(C)C[C@@H](OC)[C@H](C)CN(Cc1cc(-c3ccccc3)on1)[C@H](C)CO2,-7,-9
C/C=C/c1cnc2c(c1)C(=O)N([C@@H](C)CO)C[C@@H](C)[C@H](CN(C)C(=O)C1CCCCC1)O2,18,18
O=C(NCC[C@@H]1CC[C@H](NS(=O)(=O)c2ccc(F)cc2)[C@H](CO)O1)c1ccc2c(c1)OCO2,-7,0
CC(C)C#Cc1cnc2c(c1)C(=O)N([C@H](C)CO)C[C@H](C)[C@@H](CN(C)C(=O)c1ccccc1)O2,-2,-2
COc1ccc(-c2cnc3c(c2)C(=O)N([C@@H](C)CO)C[C@@H](C)[C@@H](CN(C)C(=O)NC2CCCC2)O3)cc1,16,4
COc1ccc(CN2C[C@@H](C)[C@H](OC)CN(C)C(=O)c3ccc(NC(=O)c4nc5ccccc5s4)cc3OC[C@@H]2C)cc1,-13,0
CC(C)CC#Cc1ccc2c(c1)O[C@H](CN(C)Cc1ccncc1)[C@H](C)CN([C@@H](C)CO)S2(=O)=O,?,nt
C[C@H](CO)N1C[C@H](C)[C@@H](CN(C)S(=O)(=O)c2ccccc2)OCCCC[C@H](C)Oc2ccc(NC(=O)c3ccccc3)cc2C1=O,7,10
CN(C)C(=O)c1cccc(-c2ccccc2[C@@H]2[C@@H](C#N)N(C(=O)C3CC3)[C@H]2CO)c1,?,nt
CNC[C@@H]1Oc2ccc(NC(=O)C3CCCCC3)cc2C(=O)N([C@H](C)CO)C[C@@H]1C,14,6
COc1ccc(NC(=O)N(C)C[C@@H]2Oc3ncc(-c4ccc(C#N)cc4)cc3C(=O)N([C@@H](C)CO)C[C@H]2C)cc1,2,-7
C[C@@H]1CN([C@H](C)CO)C(=O)c2cc(NC(=O)Nc3cccc4ccccc34)ccc2O[C@@H](C)CCCCO[C@H]1CN(C)C(=O)Nc1ccc(C(F)(F)F)cc1,8,7
O=C(c1ccncc1)N1CC(=O)N2[C@H](CO)[C@H](c3ccc(/C=C/c4ccccc4)cc3)[C@@H]2C1,-6,-1

Part of the list above, set out differently:
Molecule: COc1ccc(CN2C[C@@H](C)[C@H](OC)CN(C)C(=O)c3ccc(NC(=O)c4nc5ccccc5s4)cc3OC[C@@H]2C)cc1
  Vaccinia stage: -13	Vaccinia stage Venus: 0

Molecule: CC(C)CC#Cc1ccc2c(c1)O[C@H](CN(C)Cc1ccncc1)[C@H](C)CN([C@@H](C)CO)S2(=O)=O
  Vaccinia stage: ?	Vaccinia stage Venus: nt
